ERG-DNA inh: blocks human ERG Ets domain binding to DNA; AID 624246; fluorescence polarization, His-ERG Ets domain / labelled DNA; P11308; Potency, µM (titrated, usually from 76.9 µM), inactives show at the highest dose FP activity, negative = inhibition, hits mostly inhibitors; 0.028% of 370,000 active; active = well fitted inhibition curve with a large enough effect in the polarisation, with a control signal flat; inconclusive = small, poorly fitted or top-dose-only effect, or effect the other way, or a change in a side signal; inactive = no such curve, though single readings can be large or run the other way; the % refers to the polarisation;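 note: polarization taken with two DNA probes labelled with fluorescein and Texas red; potency is the fitted concentration of half-maximal effect; % of control where 0% means no effect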
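His-tagged ERG Ets domain (1 uM in the protein solution; 300mM KCl, 50mM Tris-HCl, 1mM EDTA, 1mM DTT, pH 7.5) received compound, then a probe mix of 5 nM fluorescein-DNA and 100nM Texas-615-DNA. Fluorescence polarization was read for both dyes.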
RGS4 inh: blocks human RGS4-accelerated GTP hydrolysis | P49798 | Transcreener GDP fluorescence polarization, RGS4-accelerated GTP hydrolysis | Potency, µM (highest dose often 114 µM), for the others: at the top dose activity change, negative = inhibition, most hits filed as inhibitors | 0.039% of 390,000 active; note: potency is the fitted concentration of half-maximal effect; % is set by controls: 0 for no effect and ±100 for the full control effect; nearly all actives have a fitted effect of over 75% in size; some results filed as inactive show a strong effect at the top dose
Target sequence (P49798 whole entry, looked up): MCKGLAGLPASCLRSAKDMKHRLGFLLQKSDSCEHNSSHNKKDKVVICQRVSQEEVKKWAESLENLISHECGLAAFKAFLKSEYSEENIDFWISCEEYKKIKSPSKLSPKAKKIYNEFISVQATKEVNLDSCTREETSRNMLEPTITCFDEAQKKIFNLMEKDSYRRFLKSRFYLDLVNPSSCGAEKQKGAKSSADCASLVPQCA
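MLSMR compounds (23 nl, pin-transferred) preincubated 10 min at room temperature with a 500nM (2x) first reagent, then RGS4 at 900nM (2x) plus Transcreener GDP mix added; fluorescence polarization (620/688 nm) read before and after 90 min at 30 °C.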
PI4K2A block: blocks human PI4K2A kinase activity; AID 1346378; 0.13% of 420,000 active; purified PI4K2A, ADP-Glo luminescence, 1 h; hits give low values; activity change, negative = inhibition, % at 76.9 µM; Q9BTU6; in the data active = activity change below about -50%; inconclusive = mostly about -30% to -49%;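 note: -100% = wells without enzyme as full effect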
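In this quantitative HTS, ADP production by PI4K2A was quantified luminescently after 1 h at ambient temperature; 100 microM adenosine served as plate-quality control.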
GLS inh: inhibitors of human glutaminase (GLS); 0.21% of 410,000 active; AID 624170; GLS enzymatic activity, qHTS titration; O94925; Potency, µM (series often up to 45.5 µM), for the others: top-dose activity change, negative = inhibition, actives largely listed as inhibitors; note: potency is the fitted concentration of half-maximal effect; % is set by controls: 0 for no effect and ±100 for the full control effect
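Compounds were pin-transferred onto hKGA, after which L-glutamine (1 mM solution) and a detection mix of glutamate oxidase, HRP and Amplex Red were added. Initial and 30 min RT fluorescence reads were collected.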
G9a block: blocks human histone lysine methyltransferase G9a; G9a H3K9 monomethylation, AlphaScreen, 2 h; Potency, µM (titrated, usually from 102 µM), without a hit: top-dose activity, negative = inhibition, most hits filed as inhibitors; 8.8% of 350,000 active; AID 504332; Q96KQ7; note: potency is the fitted concentration of half-maximal effect; % is set by controls: 0 for no effect and ±100 for the full control effect; nearly all actives have a fitted effect of over 75% in size
Target sequence (Q96KQ7 913-1193 limits assumed): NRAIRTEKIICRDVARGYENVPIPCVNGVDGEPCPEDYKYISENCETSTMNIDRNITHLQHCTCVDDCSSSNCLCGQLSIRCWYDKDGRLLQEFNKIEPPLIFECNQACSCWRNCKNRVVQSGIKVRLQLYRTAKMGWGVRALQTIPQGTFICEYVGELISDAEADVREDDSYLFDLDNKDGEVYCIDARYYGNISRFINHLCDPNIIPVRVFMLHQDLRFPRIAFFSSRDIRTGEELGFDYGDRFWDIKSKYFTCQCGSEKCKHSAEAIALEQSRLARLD
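Enzyme 20 nM + cpd, 15 min RT; add b-H3K9 pep 500 nM / SAM 20 uM; 2 h RT; anti-H3K9me1 Ab 0.5 ug/mL + SA donor / anti-rabbit acceptor beads 20 ug/mL each, 10 min; AlphaScreen read.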
Starred values were filed as active, the others as inactive; ? = inconclusive; nt = no result given; [ ] = dose if it differs, or a comment. Unless noted, calls come from the whole dose curve; as a rule, active = well fitted curve in the direction sought with a large enough effect; inconclusive = small, poorly fitted or top-dose-only effect, or another doubt; inactive = no such curve, though single readings can be large; an effect the other way counts as inactive or inconclusive. Some of the compounds tested (hit frequency here may not be typical).

Keys – A = ERG-DNA inh; B = RGS4 inh; C = PI4K2A block; D = GLS inh; E = G9a block
1. CCOc1ccc(/C=C/c2nc(C#N)c(NCc3ccccc3)o2)cc1
  A = 9% | B = 14% | C = 1 | D = -22% | E = ?
2. COC(=O)C1=C(c2ccccc2OCc2ccccc2)C[C@@H]2CC[C@H]1N2C(=O)NCCOc1ccccc1Cl
  A = -3% | B = -9% | C = -1 | D = 0% | E = 0%[0.501 µM]
3. CCOC(=O)C1CCN(Cc2coc3ccc(Cl)cc3c2=O)CC1
  A = -9% | B = 3% | C = 5 | D = 9% | E = 3.2µM*
4. CC(=O)C1CCC2C3CCC4CC(O)CCC4(C)C3C(=O)CC12C (configuration not stated)
  A = 6% | B = -18% | C = 0 | D = 0% | E = nt
5. O=C(COc1ccc(Br)cc1)N1CCN(Cc2c[nH]c3ccccc23)CC1
  A = -5% | B = -32% | C = -4 | D = 10% | E = 20µM*
6. CCOc1cc2c(cc1OCC)-n1cccc1C(c1ccc(F)c(OC)c1)NC2 (configuration not stated)
  A = 3% | B = 29% | C = -8 | D = 6% | E = 2%[0.501 µM]
7. COc1cc(CN=C(C)c2c(O)n(C)c(=O)n(C)c2=O)cc(OC)c1
  A = 0% | B = -3% | C = -1 | D = -12% | E = 4%
8. O=c1oc2ccccc2c(O)c1C(c1ccccn1)c1c(O)c2ccccc2oc1=O
  A = -3% | B = -5% | C = -2 | D = 16% | E = nt
9. O=C(Cc1ccccc1)N1CCN(CC2CC=CCC2)CC1 (configuration not stated)
  A = -5% | B = -9%[11.4 µM] | C = 0 | D = 14% | E = ?
10. COc1ccc(CN2CCN(C(=O)COc3cccc(C)c3)CC2)c(OC)c1
  A = -2% | B = 28% | C = -3 | D = 5% | E = ?
11. COc1ccc(Br)cc1CN1CCN(C(=O)Cc2ccccc2)CC1
  A = 7% | B = -35% | C = 6 | D = -9% | E = 22µM*
12. CCOc1cc2c(cc1OCC)-n1cccc1C(c1ccc(C)cc1C)NC2 (configuration not stated)
  A = -1% | B = -3% | C = -1 | D = 9% | E = ?
13. CCC(C)N1CCN(C(=O)Cc2ccccc2)CC1 (configuration not stated)
  A = -2% | B = -2% | C = 2 | D = -1% | E = 8.9µM*
14. CCOC(=O)c1ccc(NC(=O)c2cccn(Cc3ccccc3F)c2=O)cc1
  A = -2% | B = -33% | C = -17 | D = 2% | E = 17%[59 µM]
15. CCOc1cc2c(cc1OCC)-n1cccc1C(c1cccc([N+](=O)[O-])c1)NC2 (configuration not stated)
  A = 1% | B = -16% | C = -4 | D = 7% | E = 50µM*
16. CN1CCN(Cc2ccc3ccccc3c2)CC1
  A = -4% | B = -4% | C = -1 | D = -5% | E = nt
17. O=C(C1CCCN(Cc2ccc(Cl)cc2)C1)N1CCCCC1 (configuration not stated)
  A = 0% | B = -4% | C = 4 | D = 1% | E = -45%
18. CC(C)(C)n1cc(C(=O)c2ccccc2)cc1-c1ccccc1
  A = -7% | B = 2% | C = 1 | D = -2% | E = 35µM*
19. COc1cc(OC)c(OC)cc1CN1CCc2nc(N3CCN(c4ccccc4F)CC3)ncc2C1
  A = 3% | B = 16% | C = 2 | D = 19% | E = ?
20. Cc1cc(N2C(=O)C3CCCN3C2c2sccc2C)no1 (configuration not stated)
  A = -6% | B = -20% | C = 0 | D = -1% | E = 22µM*

By substructure: those above containing a carbonyl joined to an NH by a bond outside any ring.
Keys – A = ERG-DNA inh; B = RGS4 inh; C = PI4K2A block; D = GLS inh; E = G9a block
2. COC(=O)C1=C(c2ccccc2OCc2ccccc2)C[C@@H]2CC[C@H]1N2C(=O)NCCOc1ccccc1Cl
  A = -3% | B = -9% | C = -1 | D = 0% | E = 0%[0.501 µM]
14. CCOC(=O)c1ccc(NC(=O)c2cccn(Cc3ccccc3F)c2=O)cc1
  A = -2% | B = -33% | C = -17 | D = 2% | E = 17%[59 µM]

Further structures follow.
Keys – A = ERG-DNA inh; B = RGS4 inh; C = PI4K2A block; D = GLS inh; E = G9a block
21. COc1ccccc1OCC#CCN1CCCCCC1
  A = 6% | B = -33% | C = 9 | D = 2% | E = 10µM*
22. CC(CN(C)C1CCN(C)CC1)c1ccccc1 (configuration not stated)
  A = -2% | B = -7% | C = -2 | D = 0% | E = nt
23. Nc1ccccc1Nc1ccc([N+](=O)[O-])cc1[N+](=O)[O-]
  A = -11% | B = -13% | C = -2 | D = 22% | E = 89µM*
24. Fc1cccc(C2NCc3ccccc3-n3cccc32)c1 (configuration not stated)
  A = 10% | B = 3% | C = 1 | D = 1% | E = 50µM*
25. Cc1nc2cc(C(F)(F)F)ccc2n1C1CCN(Cc2nnnn2Cc2ccc3c(c2)OCO3)CC1
  A = -2% | B = 11%[56.9 µM] | C = 0 | D = 2% | E = -29%[2.33 µM]
26. COc1ccc(CN2CCc3nc(N4CCN(c5ccc(F)cc5)CC4)ncc3C2)c(OC)c1OC
  A = -4% | B = 23% | C = 4 | D = 12% | E = ?

Grouped by structure: the entries above containing an aryl methoxy group.
Keys – A = ERG-DNA inh; B = RGS4 inh; C = PI4K2A block; D = GLS inh; E = G9a block
6. CCOc1cc2c(cc1OCC)-n1cccc1C(c1ccc(F)c(OC)c1)NC2 (configuration not stated)
  A = 3% | B = 29% | C = -8 | D = 6% | E = 2%[0.501 µM]
7. COc1cc(CN=C(C)c2c(O)n(C)c(=O)n(C)c2=O)cc(OC)c1
  A = 0% | B = -3% | C = -1 | D = -12% | E = 4%
10. COc1ccc(CN2CCN(C(=O)COc3cccc(C)c3)CC2)c(OC)c1
  A = -2% | B = 28% | C = -3 | D = 5% | E = ?
11. COc1ccc(Br)cc1CN1CCN(C(=O)Cc2ccccc2)CC1
  A = 7% | B = -35% | C = 6 | D = -9% | E = 22µM*
19. COc1cc(OC)c(OC)cc1CN1CCc2nc(N3CCN(c4ccccc4F)CC3)ncc2C1
  A = 3% | B = 16% | C = 2 | D = 19% | E = ?
21. COc1ccccc1OCC#CCN1CCCCCC1
  A = 6% | B = -33% | C = 9 | D = 2% | E = 10µM*
26. COc1ccc(CN2CCc3nc(N4CCN(c5ccc(F)cc5)CC4)ncc3C2)c(OC)c1OC
  A = -4% | B = 23% | C = 4 | D = 12% | E = ?
